# Source: PubChem BioAssay (Fisher Drug Discovery Resource Center)
# NPYLR7 ag: mosquito NPYLR7 agonism | AID 1259423 | actives 0.15% (n = 270,000) | HEK293T NPYLR7/Galpha15, GCaMP6s calcium fluorescence | activation, % at 10 µM; in the data active means activation above about 40%;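 further: 0% = vehicle and 100% = reference agonist at the receptor; some compounds past the cut are filed as inactive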
# NPYLR7 ag max-min: recorded beside NPYLR7 ag, whose call it bears; activation, %; measured here: Max-Min RFU normalised activation; some inactives read as strong as hits;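 span of the calcium signal over five minutes; 0% = vehicle and 100% = native peptide agonist; compound fluorescence can raise it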
# The depositor's hits bear a star; & = joins results of further samples. These rows are one share of the data. The share of hits here may be higher or lower than overall.
Compound,NPYLR7 ag,NPYLR7 ag max-min
O=C(c1ccccc1)N1CCC(NC2C=CS(=O)(=O)C2)CC1 (centres undefined),1,-1
CCCn1c(=O)c2c(nc3n2CC(C)CN3C2CCCCC2)n(C)c1=O (centres undefined),0,-1
OC(COCc1ccco1)CN(Cc1cccc(F)c1)C1CC1 (centres undefined),9,11
O=C(OC1CC2CCC1C2)C1CC(=O)N(C2CCCC2)C1 (centres undefined),8,6
CC(C)(C)CC(C)(C)Nc1c(C2CCCCC2)nc2c(Cl)cc(Cl)cn12,4,13
CCCOC(=O)c1c(NC(=O)c2c(-c3ccccc3)noc2C)sc2c1CCC(C)C2 (centres undefined),-2,-3
CCCCC(CC)C(=O)N1CCC[C@@H]1C(=O)NCCCNC(C)=O (some centres undefined),10,15
Cc1ccc(Cn2c(N3CCN(Cc4ccc(F)cc4)CC3)nc3c2c(=O)[nH]c(=O)n3C)cc1,6,6
COc1ccc2ccccc2c1/C=C1\N=C(c2ccccc2)OC1=O,-2,-6
CN(c1ccc(-c2csc(NC(=O)c3ccco3)n2)cc1)S(C)(=O)=O,9,3
Cc1cc(C(=O)NCCn2nc(-c3ccccc3)ccc2=O)nc(C)n1,3,2
Cc1cc(C(=O)N2CCCS2(=O)=O)c(C)s1,4,-2
Cc1ccc(-c2nnc(C(C)Sc3nnc(N)s3)o2)cc1 (centres undefined),-1,-1
Cc1nc(Nc2ccc(F)c(Cl)c2)sc1C(=O)N(C)C,-2,-2
CCONC(=O)c1cc2cc(OC)cc(OC)c2[nH]1,0,2
COc1cccc(NC(=O)CCC2CCN(C(=O)C(C)n3cncn3)CC2)c1 (centres undefined),4,5
CCOC(=O)c1cccc(=O)c2c(C)n(CC3CCCO3)c(C)c12 (centres undefined),-4,-7
CCOC(=O)C1=C(O)/C(=C\c2cccc(OCC)c2O)SC1=Nc1ccccc1F,-6,1
Cc1noc(-c2cccc(C(F)(F)F)c2)c1C(=O)NCCc1cccc(Cl)c1,7,5
N#Cc1cccc(C(=O)N2CCN(Cc3ccc(-c4noc(C5CCCC5)n4)cc3)CC2)c1,7,9

# Given with each value named: entries from further up.
Cc1ccc(Cn2c(N3CCN(Cc4ccc(F)cc4)CC3)nc3c2c(=O)[nH]c(=O)n3C)cc1
- NPYLR7 ag: 6
- NPYLR7 ag max-min: 6

O=C(OC1CC2CCC1C2)C1CC(=O)N(C2CCCC2)C1 (centres undefined)
- NPYLR7 ag: 8
- NPYLR7 ag max-min: 6

N#Cc1cccc(C(=O)N2CCN(Cc3ccc(-c4noc(C5CCCC5)n4)cc3)CC2)c1
- NPYLR7 ag: 7
- NPYLR7 ag max-min: 9

# The list continues.
Compound,NPYLR7 ag,NPYLR7 ag max-min
CCOC(=O)c1nc2ccccc2nc1N1CCN(S(=O)(=O)c2ccc(Cl)cc2)CC1,-13,-15
CCC(C)N(Cc1ccsc1)C(=O)C1(COC)CC1 (centres undefined),-5,-9
Cc1ccccc1C1CC1C(=O)N1CCCC(C(=O)N2CCCC2)C1 (centres undefined),0,-1
Nc1ccc(NC(=O)NC2CCCCC2)cc1[N+](=O)[O-],1,-3
Cc1nc2c(c(NCc3cnc4c(c3)CCC4)n1)CNC2,8,3
C=CCn1c(=NC(=O)CCS(=O)(=O)c2ccccc2)sc2c(OC)ccc(OC)c21,3,1
COc1ccc(C)cc1NC(=O)CN1CC(C(=O)O)CC1=O (centres undefined),3,1
Cc1nn2c(N3CCOCC3)cc(C(C)(C)C)nc2c1-c1ccccc1Cl,17,17
CCNc1nc(C(=O)N(C)Cc2ccc(Br)o2)cs1,9&7,5&4
CC1(C)C=C(C(=O)N2CCOCC2)C(C)(C)N1,9,5
COc1cccc(-c2cn[nH]c2C2CCN(C(=O)c3ccc(C)[nH]c3=O)CC2)c1,15,12
Cc1nc(-c2ccc(NC(=O)C3CCOCC3)cc2)co1,2,2
CC(NC(=O)c1ccco1)c1nc2ccccc2n1CCOc1ccccc1Cl (centres undefined),-4,2
Cc1cc(C)n(Cc2cc(C(=O)N3CCN(C)C[C@@H]3c3ccccc3)n[nH]2)n1,12,7
O=S(=O)(Nn1cc(-c2ccccc2)[nH]c1=S)c1ccc2c(c1)OCCO2,-7,-10
COC(=O)Cn1cc(C=NNC(=O)COc2cccc3cccnc23)c2ccccc21,20,13
CN(Cc1ccc2c(c1)OCCO2)C(=O)Cn1cnc2ccsc2c1=O,5,3
CCOc1c(Cl)cc(C=CC(=O)c2ccc3c(c2)OCCO3)cc1OC,2,1
Cc1ccc(-c2cc3c(SCC(=O)NCc4ccccc4)nccn3n2)cc1,-2,-3
COc1ccc2nc(NC(=O)COc3ccc(Cl)cc3)sc2c1,1,0

# Entries shown so far with two or more sulfur atoms:
Compound,NPYLR7 ag,NPYLR7 ag max-min
CN(c1ccc(-c2csc(NC(=O)c3ccco3)n2)cc1)S(C)(=O)=O,9,3
Cc1cc(C(=O)N2CCCS2(=O)=O)c(C)s1,4,-2
Cc1ccc(-c2nnc(C(C)Sc3nnc(N)s3)o2)cc1 (centres undefined),-1,-1
C=CCn1c(=NC(=O)CCS(=O)(=O)c2ccccc2)sc2c(OC)ccc(OC)c21,3,1
O=S(=O)(Nn1cc(-c2ccccc2)[nH]c1=S)c1ccc2c(c1)OCCO2,-7,-10

# (continued)
Compound,NPYLR7 ag,NPYLR7 ag max-min
CCc1ccc(CN2N=NC3C(=O)N(c4ccc(C)c(C)c4)C(=O)C32)cc1 (centres undefined),4,-3
COc1ccc(OC)c(Cc2nnc(CCC(=O)NCc3csc(C(C)C)n3)o2)c1,9&-2,5&-3
CC1=C(c2ccccc2)[N+](=O)C2(CCCC2)N1[O-],5,13
CC(C)(C)c1ccc(=O)n(CC(=O)c2sccc2Br)n1,13,-2
C[n+]1ccn(CC#N)c1,-4,-8
CCCCc1ccc(C(=O)N2CCN(C(C(=O)Nc3ccc(OC)cc3)C3CCCC3)CC2)cc1 (centres undefined),0,17
COCCOCC(=O)N1CCC(n2c(=O)oc3cc(C)ccc32)CC1,3,2
COc1cc(-c2nc(C=Nc3cccc(C(=O)O)c3)c(O)o2)cc(OC)c1OC,-5,-12
CCOc1ccc(C(O)=C2C(=O)C(=O)N(CCCN(C)C)C2c2ccc(F)cc2)cc1C (centres undefined),1,-3
COCCn1c(C)c(C(=O)Nc2cccc(Oc3ccccc3)c2)sc1=O,14,5
CC(=O)c1ccc(NC(=O)Nc2ccc3nc(-c4ccsc4)nn3c2)cc1,-11,-12
CCc1nc2ccc(C(=O)N3CCN(S(=O)(=O)CC)CC3)cn2c1N(C=O)CC,-4,-11
O=C(c1ccccc1OC1CCN(Cc2ccc3cc(F)ccc3n2)CC1)N1CCCCC1,5,-2
O=C(c1cccs1)C1CCCN(C(=O)c2cn(Cc3cccc4ccccc34)nn2)C1 (centres undefined),3,0
CC1(C)O[C@@H]2C[C@@](OCc3cccc(C(F)(F)F)c3)(C(=O)NCC3CC3)CC(OCc3cccc(OC(F)(F)F)c3)[C@@H]2O1 (some centres undefined),3,12
Cc1ccc(C)c2[nH]c(=O)c(CCNC(=O)c3ccc4ccccc4c3)cc12,1,2
CC(C)NC(=S)NN=Cc1ccc[nH]1,4,5
CC1(C)CC(c2nccn2CCOc2ccccc2)CCO1 (centres undefined),2,0
Cc1onc(-c2ccccc2)c1C(=O)Nc1ccccc1F,-3,-5
O=C1Nc2ccc(Cl)cc2C1=Cc1ccc(Br)s1,8,18
FC(F)(F)c1cc(-c2ccco2)nc(-n2ccnc2)n1,-9,-8
COCCNS(=O)(=O)c1ccc(OC)c(N2CCN(C(=O)C(F)(F)C(F)F)CC2)c1,17,10
C(=C\c1ccccc1)/CNc1ccc2c(c1)OCCO2,6,1
COc1ccc(S(=O)(=O)N2CCc3ccccc3C2)cc1N1CCN(C(=O)c2cccc(C#N)c2)CC1,21,5
O=c1c2ccccc2[nH]c(=S)n1Cc1cccnc1,-6,-11
Cc1ccc2oc(-c3cccc(NC(=O)c4cccs4)c3C)nc2c1,-5,3
CC1CN(C)CCN1Cc1cccc(C(=O)NCc2ccco2)c1 (centres undefined),7,4
CN(Cc1cnc(C(C)(C)C)nc1)Cc1nc2ccc(F)cc2[nH]1,4,1
COc1ccc(C=C2COc3ccccc3C2=O)cc1OCC(C)C,2,0
O=C(Cc1ccccc1)Nc1ccc(C2SCC(=O)N2c2ccc(C(F)(F)F)cc2)cc1 (centres undefined),-12,0
Cc1c(C(F)(F)F)nc(-c2ccc(CN3CCCC(CN)C3)cc2)[nH]c1=O (centres undefined),2,-3
CCC(C)N(Cc1ccc2c(c1)OCO2)Cc1ccc(C(O)(c2ccccc2)c2ccccc2)o1 (centres undefined),-1,6
Cc1cc(C(=O)N/N=C\c2ccc(O)cc2)n[nH]1,3,6
Cc1nn(C)c(C)c1S(=O)(=O)NC(=O)CC1CC2CCC1C2 (centres undefined),9,2
O=C(O)c1ccc(N=Cc2nc(/C=C/c3cccc([N+](=O)[O-])c3)oc2O)cc1,-2,2
Cc1ccc(Sc2c(C)[nH]n(C(C)(C)C)c2=O)cc1,13,2
COc1ccc(S(=O)(=O)N2CCN(c3ncccc3C(=O)NCc3ccc4c(c3)OCO4)CC2)c(OC)c1,27,10
CN(C)C(=O)c1cccc(-c2nccnc2NCc2cccc(C(F)(F)F)c2)c1,-6,-9
Nc1cccc(NC(=O)c2cccc(S(=O)(=O)Nc3cccc(N)c3)c2)c1,12,8
O=C(c1cn(CC2CCCNC2)nn1)N1CC=CC1 (centres undefined),-2,2

# Carrying on:
SMILES,NPYLR7 ag,NPYLR7 ag max-min
CC(C)(CO)N(Cc1cccnc1)C(=O)C(=O)c1ccccc1,5,3
CC(C(=O)Nc1ccc(F)cc1)n1c(=O)n(Cc2ccccc2)c(=O)c2ccccc21 (centres undefined),0,8
CCN(C(=O)Cn1ccnc1-c1cnccn1)C1CC1,4,1
CCOC(=O)c1c(NC(=O)c2ccc([N+](=O)[O-])cc2)sc(C(=O)Nc2cccc(Cl)c2)c1C,5,17
Cc1cccc(CN(CCN(C)C)C(=O)CCCn2cccn2)c1,5,4
CCCC(C(=O)n1nc(C)cc1C)C(NS(=O)(=O)c1ccc(C)cc1)c1ccccc1 (centres undefined),-6,-8
COCCN1C(=O)[C@]2(C)[C@H](c3ccccc31)[C@@H](C(N)=O)CN2S(=O)(=O)c1ccccc1,2,14
N#CCCCSc1nc2ccccc2c(=O)n1-c1ccc(OC(F)F)cc1,12,13
COC(=O)CCCC(=O)Nc1ccc(-c2cccc(-c3cc(OC)ccc3OC)n2)cc1,-6,-10
CN(C=CC(=O)C(F)(F)F)CC(=O)O,2,-6
CC[n+]1c(C)cc(C)n1-c1ccccc1,-2,-5
Cc1cc(C(C)C(=O)Nc2ccc(N3CCN(C)CC3)cn2)c(C)o1 (centres undefined),1,-2
Cc1ccc(C)c(OCc2n[nH]c(=S)o2)c1,0,-2
O=[N+]([O-])c1cc(-c2ccc(C=Nn3cnnc3)o2)ccc1O,-10,-15
CCCNC(=O)N(CC)Cc1nccn1Cc1ccccc1C,9,19
Nc1cc(-c2ccc3c(c2)OC[C@@H](N2CCCC2)[C@@H]3O)c2cc[nH]c2n1,3,1
CCOC(=O)C1(Cc2ccccc2C(F)(F)F)CCN(C(=O)C(=O)c2ccccc2)CC1,2&-1,-6&9
COCc1noc(-c2ccc(NCCc3cccnc3)nc2)n1,8,2
O=C(CCc1ccc(O)cc1)N1CCC2(CCCO2)CC1,9,6
O=C(NCC1CCNCC1)c1ccc(C2CCNC2)cc1 (centres undefined),-2,-3
CC(C)c1cc(Oc2ccccc2F)nc(SCc2ccc([N+](=O)[O-])cc2)n1,4,17
O=C(CCNC(=O)N(Cc1ccccc1F)C1CC1)NC1CCCC1,-1,-1
COc1ccc(OC)c(-c2cc(C(=O)N3CCn4c3nc3ccccc34)n(C)n2)c1,3,-1
O=C(COc1cccc(Cl)c1)N=Nc1c(O)[nH]c2ccc([N+](=O)[O-])cc12,1,-5
CCc1ccc(N2C(=O)/C(=C/c3ccc(OCC(=O)O)c(OC)c3)C(=O)NC2=S)cc1,-9,-11
COc1ccc(C2Nc3ccccc3-c3nc4ccccc4n32)cc1 (centres undefined),27,35
S=C(C(=CN1CCOCC1)c1ccccc1)N1CCOCC1,26,26
CCCSc1nnc(CSc2ncccn2)n1CCc1ccccc1,0,8
Cc1cccc(OCCNC(=O)N2CCN(S(=O)(=O)c3cccc(Cl)c3)CC2)c1,5,3
FC(F)(F)c1cccc(C2c3cccn3CCCN2Cc2ccc(Cl)cc2)c1 (centres undefined),0,-2
CCCCCCCCS(=O)(=O)N1CCCN(c2nc(Cc3cccc(OC)c3)ns2)CC1,0,12
O=C([C@H]1CCCN1C(=O)c1ccccc1)N1CCN(c2cccc(O)c2)CC1,2,6
c1ccc(-c2cccc(CN3CC(c4ccccn4)C3)c2)nc1,-1,-3
COC(=O)c1c(NC(C)=O)c2cc(NC3CCCC3)cnc2n1C,22,9
COCCCNCC(=O)N1CC(=O)N(c2cccc(Cl)c2C)C1,5,4
O=C(C=C1CCCCC1)NCCC(=O)N1CCOCC1,4,0
Cc1ccc(SCCCN(C)Cc2cc3n(n2)CCCNC3)cc1,7,7
CC(C)(C)c1ccc(-c2ccnc3nc(N4CCN(C(=O)c5ccc(F)cc5C(F)(F)F)CC4)nn23)cc1,3,2
COCC(=O)Nc1ccccc1-c1ccc(C(C)N2CCCC2)cc1 (centres undefined),-3,-1
Cc1cc(C)cc(N2CCN(Cc3cnn(C)c3C3CC3)CC2=O)c1,3,2
O=S(=O)(c1cccs1)N(c1ccccc1)C(F)F,3,1
CCCC(=O)Nc1ccc(N2CCCC2)c(C(=O)NC2CCCCC2)c1,4,8
CN(C)C(=O)CN1CCN(S(=O)(=O)c2cccs2)CC1,1,3
